Cruzain noTriton = qHTS Assay for Promiscuous and Specific Inhibitors of Cruzain (without detergent) | Cruzipain (Trypanosoma cruzi), P25779 | purified cruzain, Z-FR-AMC fluorescence, no detergent | Potency, µM, for inactives: max response, negative = inhibition, actives largely listed as inhibitors | 200,000 tested, 2.3% active; active = well fitted curve in the direction sought with a large enough effect; inconclusive = small, poorly fitted or top-dose-only effect, or another doubt; inactive = no such curve, though single readings can be large; an effect the other way counts as inactive or inconclusive;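 note: plate controls were enzyme without inhibitor for no effect and buffer without enzyme for full effect; nearly all actives have a fitted effect of over 40% in size; top concentration of the series not given in the record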
Target sequence (P25779 123-467 limits assumed): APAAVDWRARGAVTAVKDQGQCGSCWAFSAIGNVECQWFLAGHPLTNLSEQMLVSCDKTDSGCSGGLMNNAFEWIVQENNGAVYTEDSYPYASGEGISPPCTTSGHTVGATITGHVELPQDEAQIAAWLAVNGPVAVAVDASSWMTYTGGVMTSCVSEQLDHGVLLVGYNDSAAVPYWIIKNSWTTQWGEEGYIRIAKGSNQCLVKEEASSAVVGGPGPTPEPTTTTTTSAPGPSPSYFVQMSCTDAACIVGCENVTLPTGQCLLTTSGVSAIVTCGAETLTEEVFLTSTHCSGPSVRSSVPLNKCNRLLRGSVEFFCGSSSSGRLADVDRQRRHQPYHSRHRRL
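Detergent-free condition (0.00005% Triton X-100) in acetate buffer pH 5.5 with DTT. 1.5 nM enzyme and compound were pre-mixed 15 min, then 2 uM Z-FR-AMC substrate added; reaction progress from fluorescence change between first and third reads (60 s).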
Cruzain Triton = qHTS Assay for Promiscuous and Specific Inhibitors of Cruzain (with detergent). Potency, µM, inactives show max response, negative = inhibition, hits mostly inhibitors. 200,000 tested, 0.43% active. purified cruzain, Z-FR-AMC fluorescence, 0.01% Triton; active = well fitted curve in the direction sought with a large enough effect; inconclusive = small, poorly fitted or top-dose-only effect, or another doubt; inactive = no such curve, though single readings can be large; an effect the other way counts as inactive or inconclusive;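 note: plate controls were neutral wells for no effect and buffer without enzyme for full effect; nearly all actives have a fitted effect of over 40% in size; top concentration of the series not given in the record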
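Sodium acetate buffer (100 mM, pH 5.5) containing 5 mM DTT and 0.01% Triton X-100 hosted 1.5 nM cruzain and test compound for 15 min at room temperature. Cleavage of 2 uM Z-FR-AMC was then tracked by fluorescence.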
2A StopGo = High Throughput Screening for Foot and Mouth Disease Virus Antivirals; human cells with a luciferase reporter of 2A StopGo recoding; control for the full effect not named in the record; Potency, µM (top dose mostly 57.9 µM), inactives show top-dose signal change, negative = less light; 410,000 tested, 1.2% active; AID 1159524, 2015; active = well fitted falling curve with a large enough effect; inconclusive = small, poorly fitted or top-dose-only effect; inactive = no such curve, though single readings can be large or run the other way; tested in HEK293T cells; note: % is set by controls: 0 for no effect and ±100 for the full control effect; nearly all actives have a fitted effect of over 45% in size; luciferase light after 4 h
Lassa entry inh = qHTS for Inhibitors of binding or entry into cells for Lassa Virus; 300,000 tested, 1.2% active; Potency, µM (doses to about 37.9 µM), for inactives: at the highest dose activity change, negative = inhibition, most hits filed as inhibitors; Lassa virus pseudotype entry inhibition, cell reporter; control for the full effect not named in the record; active means well fitted inhibition curve with a large enough effect; inconclusive means small, poorly fitted or top-dose-only effect, or effect the other way; inactive means flat fitted curve, though single readings scatter; tested in HEK293 cells; note: % is set by controls: 0 for no effect and ±100 for the full control effect; nearly all actives have a fitted effect of over 50% in size; luciferase read-out
NS1 inh = qHTS Assay for Inhibitors of Influenza NS1 Protein Function | S. cerevisiae slowed by influenza A NS1, growth recovery by OD600 | Potency, µM (series often up to 46.1 µM), inactives show at the top dose activity, positive = more growth | 270,000 tested, 0.4% active | AID 2326, 2010; note: actives are rising curves; nearly all actives have a fitted effect of over 50% in size
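In this qHTS, NS1 from influenza A is expressed in budding yeast, where it slows growth. Cells are switched from glucose to 2% galactose medium (pH 6.0, -URA), treated with compound, and growth recovery is read at OD600.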
SARS PLP yeast = qHTS of Yeast-based Assay for SARS-CoV PLP. S. cerevisiae expressing SARS-CoV PLpro, growth rescue; control for the full effect not named in the record. Potency, µM (doses to about 32.9 µM), for the others: at the highest dose activity, positive = growth rescue. 330,000 tested, 0.19% active. AID 485353, 2010; note: 0% is about no effect; nearly all actives have a fitted effect of over 55% in size; growth read by luminescence after 48 h
RE007 growth inh = qHTS Assay for Inhibitors of the HIV-1 protein Vpr | S. pombe RE007 Vpr strain, BacTiter-Glo ATP luminescence, 24 h; control for the full effect not named in the record | Potency, µM (series often up to 92.2 µM), for the others: top-dose activity change, negative = less growth | 360,000 tested, 0.21% active; active = well fitted falling curve with a large enough effect; inconclusive = small, poorly fitted or top-dose-only effect; inactive = no such curve, though single readings can be large or run the other way;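 note: % is set by controls: 0 for no effect and ±100 for the full control effect; nearly all actives have a fitted effect of over 50% in size; the assay follows cell death caused by Vpr and the record does not say whether a fall means rescue or toxicity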
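Fission yeast strain RE007, carrying one chromosomally integrated HIV-1 vpr copy, was seeded at OD 0.01 in PMG+AL medium with 23 nL pinned compound. After 24 h at 30 °C and 99% humidity, viability was read by BacTiter-Glo luminescence.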
Marburg entry inh = qHTS for inhibitors of binding or entry into cells for Marburg Virus | Potency, µM (doses to about 37.8 µM), for inactives: top-dose activity change, negative = inhibition, most hits filed as inhibitors | AID 540276, 2011 | Marburg virus pseudotyped entry inhibition, cell reporter; control for the full effect not named in the record; about a third of the inactives were read at about 46 µM | 300,000 tested, 1.8% active; active = well fitted inhibition curve with a large enough effect; inconclusive = small, poorly fitted or top-dose-only effect, or effect the other way; inactive = flat fitted curve, though single readings scatter; tested in HEK293 cells; about a fifth of its hits are not listed in these tables; note: % is set by controls: 0 for no effect and ±100 for the full control effect; luciferase read-out
Numbers without * were called inactive; ? = inconclusive; . = not tested or not shown; [ ] = remark or other dose. Unless noted, calls come from the whole dose curve; as a rule, active means well fitted rising curve with a large enough effect; inconclusive means small, poorly fitted or top-dose-only effect; inactive means no such curve, though single readings can be large or run the other way. Potency is the fitted concentration of half-maximal effect. An unsorted share of the library; overall some 4.7% were active at least once.

SMILES	Cruzain noTriton	Cruzain Triton	2A StopGo	Lassa entry inh	NS1 inh	SARS PLP yeast	RE007 growth inh	Marburg entry inh
Cc1ccccc1C(=O)Nc1nnc(SCC(=O)NC2CC2)s1	.	.	5.2%	?	-9.9%	0.3%	3.4%	?
Cc1ccc(Sc2ncccc2C(=O)NCC(c2ccc(F)cc2)N2CCOCC2)cc1C (stereo not drawn)	.	.	-0.5%	-0.7%	.	-7.1%	3.9%	0.7%
C=CCn1c(SCC(=O)Nc2ccccc2F)nc2ccccc2c1=O	.	.	-20.0%	.	0.4%	-6.0%	10.9%	.
CC(=O)c1cccc(NC(=O)N2C3CCC2CC(NC(=O)C2CC2)C3)c1 (stereo not drawn)	.	.	-15.1%	.	0.0%	-1.1%	8.1%	.
CCc1ccccc1NC(=O)c1nnn(Cc2ccc(Cl)cc2)c1N	-1.7%	-7.2%	0.0%	-19.1%[46.1 µM]	.	.	.	3.3%[46.1 µM]
O=C(NC1CC1)c1ccc(N2CCCCC2)c([N+](=O)[O-])c1	.	.	5.6%	?	-51.0%	-6.1%	17.8%	?
COc1ccc(CNC(=O)C(C)NCc2ccccc2Cl)cc1 (stereo not drawn)	.	.	9.5%	?	1.5%	1.0%	4.2%	-8.0%
O=C(NCc1ccccn1)C1CCCN(S(=O)(=O)c2ccccc2)C1 (stereo not drawn)	12.9%	-1.2%	.	17.6%	-0.3%	-3.3%	-6.3%	9.0%
CCOC(=O)CCCNC(=O)CN1C(=O)NC2(CCCCCC2)C1=O	0.0%	2.6%	14.9%	-2.1%	0.3%	3.2%	3.4%	3.7%
CC1(C)CC(=O)C(C2=NC3(CCCCCC3)Cc3ccccc32)=C(O)C1	.	.	-1.7%	.	-4.1%	-0.6%	8.6%	.
C[C@H](NC(=O)c1ccc2c(c1)OCO2)c1nnc2ccccn12	.	.	-1.5%	.	-0.3%	-2.8%	-7.1%	.
CS(=O)(=O)Nc1ccc(C(=O)Nc2ccccc2C(=O)NCc2ccco2)cc1	.	.	-0.3%	9.0%[46.1 µM]	18.2%	2.9%	12.1%	2.2%[46.1 µM]
CC(=O)Nc1ccc(S(=O)(=O)NCC(=O)OCC(=O)NC(=O)c2cccn2C)cc1	.	.	-24.0%	22.8%	2.2%	1.1%	-16.5%	0.8%[46.1 µM]
COc1ccc(-n2ncc(C(=O)NCCCN3CCCCC3)c2C2CCN(C(=O)OC(C)(C)C)CC2)cc1	-5.7%	-0.6%	-1.2%	-16.7%[46.1 µM]	.	.	.	.
O=C(CCc1ccccc1)NC(c1cccs1)c1cc(Cl)c2cccnc2c1O (stereo not drawn)	.	.	-25.8%	2.82µM*	-1.0%	11.5%	?	?
COc1ccccc1Nc1nnc(Cc2ccccc2)c(=O)[nH]1	.	.	-8.6%	-9.0%[46.1 µM]	.	0.4%	2.5%	21.8%[46.1 µM]
CCN(CC)S(=O)(=O)c1ccc2oc(C(=O)Nc3cc(C)ccc3OC)c(C)c2c1	-2.7%	1.0%	-23.7%	21.9%[46.1 µM]	.	.	.	.
CS(=O)c1ccccc1COC(=O)Nc1cccc(Cl)c1 (stereo not drawn)	-1.6%	4.4%	.	19.2%	-2.1%	0.9%	-11.7%	-2.8%
O=c1oc2cc(O[C@@H]3OC[C@@H](O)[C@H](O)[C@H]3O)ccc2c2ccccc12	.	.	7.9%	3.5%[46.1 µM]	1.0%	0.3%	-15.8%	?
Cc1ccc(OCC(=O)Nc2ccc3nc(SCC(=O)N4CCc5ccccc54)sc3c2)cc1	-7.8%	0.3%	-4.2%	-8.6%[46.1 µM]	.	.	.	2.6%[46.1 µM]
COc1ccccc1NC(=O)C(C)N(C)CCOc1ccccc1 (stereo not drawn)	.	.	-14.2%	-3.5%[46.1 µM]	6.4%	12.9%	-11.3%	-38.1%[46.1 µM]
CCOC(=O)C1(CCOc2ccccc2)CCN(Cc2cc(OC)cc(OC)c2)CC1	.	.	-26.7%	?	-27.0%	1.1%	-9.5%	?
COc1ccc(/C=N/Nc2nc(-c3cccc(S(=O)(=O)N4CCCC4)c3)cs2)cc1OC	-28.6%	-15.6%	?	-9.0%	12.6µM*	18.9%	8.7%	?
Cc1cc(NCc2ccccc2)nc(-c2ccccc2O)n1	-6.7%	-23.7%	1.0%	?	-81.7%	-28.1%	-4.6%	?
Cc1ccc(CN2CCN(/N=C/C=C/c3ccccc3[N+](=O)[O-])CC2)cc1	.	.	-18.2%	-9.0%[46.1 µM]	.	-0.2%	-27.3%	1.5%[46.1 µM]

Record cards, as listed above.
`CCc1ccccc1NC(=O)c1nnn(Cc2ccc(Cl)cc2)c1N` is entered as Cruzain noTriton = -1.7%; Cruzain Triton = -7.2%; 2A StopGo = 0.0%; Lassa entry inh = -19.1%[46.1 µM]; NS1 inh = .; SARS PLP yeast = .; RE007 growth inh = .; Marburg entry inh = 3.3%[46.1 µM]
`CCOC(=O)C1(CCOc2ccccc2)CCN(Cc2cc(OC)cc(OC)c2)CC1` is entered as Cruzain noTriton = .; Cruzain Triton = .; 2A StopGo = -26.7%; Lassa entry inh = ?; NS1 inh = -27.0%; SARS PLP yeast = 1.1%; RE007 growth inh = -9.5%; Marburg entry inh = ?

The list continues.
SMILES	Cruzain noTriton	Cruzain Triton	2A StopGo	Lassa entry inh	NS1 inh	SARS PLP yeast	RE007 growth inh	Marburg entry inh
O=C(Nc1ccccc1)N1CCCC1c1cccs1 (stereo not drawn)	.	.	-1.5%	.	0.3%	1.0%	14.4%	.
CC(=O)c1ccc(Oc2ccc(C(=O)c3ccc(C)c(C)c3)cc2[N+](=O)[O-])cc1	?	-3.6%	0.0%	1.46µM*	?	7.9%	-2.6%	?
O=C(CSC1=NCCS1)N1CCCCCC1	-0.4%	1.3%	11.1%	4.0%	-0.9%	3.6%	-10.5%	8.0%
CCN(CC)c1nn2c(=O)c(C(=O)NCCc3ccc(C)cc3)cnc2s1	3.1%	-1.4%	?	?	.	.	.	.
CN1CC2(Cc3c1ccc1ccccc31)C(=O)OC(C)(C)OC2=O	-1.8%	1.1%	?	?	-2.6%	-7.0%	-5.2%	?
CCCN(CC(=O)Nc1ccccc1C)C(=O)c1ccc2ccccc2n1	.	.	2.7%	2.0%	.	-1.8%	-14.1%	?
Cc1ccc(N=Nc2c(O)n(CN3CCOCC3)c3ccccc23)cc1	-18.9%	-0.9%	45.2%[activator]	-3.6%	-10.1%	-5.9%	?	?
COC(=O)C(=Nc1ccccc1)/C(C(=O)C(=O)N(C)c1ccccc1)=C(\O)c1ccc(Cl)cc1	.	.	5.7%	.	-3.4%	-5.2%	-3.7%	.
CCC(=O)NCc1nc2ccccc2n1Cc1ccccc1	4.1%	-0.6%	-7.5%	-11.0%[46.1 µM]	.	.	.	23.3%[46.1 µM]
COc1ccc(NC(=O)CSCC(=O)Nc2nnc(C3CC3)s2)cc1	.	.	0.5%	9.0%	.	.	15.9%	?
Cc1ccccc1Nc1scc(-c2ccc(Br)cc2)[n+]1-c1ccccc1C	.	.	-29.2%	?	.	-18.8%	1.7%	-15.8%[46.1 µM]
COc1cc(NC(=O)COc2ccccc2C)ccc1NC(=O)c1ccco1	.	.	-23.7%	.	0.7%	-0.1%	-7.7%	.
O=C(NCc1ccccc1)c1ccc(Cl)c(NC2=NC3CS(=O)(=O)CC3S2)c1 (stereo not drawn)	.	.	-3.1%	.	-3.6%	-6.0%	-0.8%	.
Cc1ccc(-n2nc(CO)c(C(=O)NCc3ccccn3)n2)cc1C	4.7%	-4.3%	0.5%	7.1%[46.1 µM]	.	.	.	?
Cn1c(N)c(C(=O)COC(=O)CCCc2c[nH]c3ccccc23)c(=O)n(C)c1=O	?	-6.3%	-9.4%	14.7%	-15.2%	14.5%	-3.7%	9.4%
Cc1onc(-c2ccccc2Cl)c1C(=O)NC(=S)Nc1ccccc1C(N)=O	-3.5%	-2.4%	0.5%	3.6%	6.7%	-15.9%	-12.8%	-4.7%
COc1ccc(CC(NC(C)=O)C(=O)NC2CCN(c3c(Cc4ccccc4)c(C)nc4ncnn34)CC2)c(OC)c1 (stereo not drawn)	.	.	-10.2%	.	-4.9%	-0.1%	5.7%	.
COc1ccc(N=Cc2c(O)[nH]c3ccccc23)cc1	2.2%	-8.8%	41.4%[activator]	?	-28.5%	-9.8%	23.5%	?
COC(=O)C1=CN(Cc2ccc(OC)c(OC)c2)C=C(C(=O)OC)C1c1ccc(F)cc1	.	.	-17.7%	.	?	11.8%	15.6%	.
CCOc1nc(C)ccc1-c1noc(-c2ccco2)n1	-0.5%	-0.6%	35.2%[activator]	23.7%[14.3 µM]	-25.3%	?	-2.6%	11.0%
CCOc1ccc(Br)cc1CNc1ccc2c(c1)OCCO2	.	.	-19.2%	-8.4%	-1.9%	-1.4%	-16.6%	?
COc1ccc(NC(=O)C2CCN(C(=O)N3CCOc4ccccc43)CC2)cc1	-12.3%	-9.2%	-10.0%	-22.5%[46.1 µM]	.	.	.	.
O=C(Cc1n[nH]c(=O)c2ccccc12)OCC(=O)c1ccc(OC(F)F)cc1OC(F)F	.	.	0.0%	1.2%	.	-5.9%	8.1%	-2.6%
CC(C)c1ccc(NC(=O)CSc2nc(=O)n(CCCN3CCOCC3)c3c2CCCC3)cc1	.	.	8.1%	-20.4%	.	.	11.6%	?
CCOc1ccccc1Nc1nnc(SCC(=O)N(C)C2CCS(=O)(=O)C2)s1 (stereo not drawn)	.	.	-13.4%	?	.	0.0%	-7.2%	?
Cc1ccc(S(=O)(=O)Cn2nnnc2C(CC(C)C)N2CCN(c3ccccc3)CC2)cc1 (stereo not drawn)	-13.0%	-6.0%	3.7%	-5.7%	1.0%	-13.2%	5.6%	-20.7%
Nc1ncnc2c1ncn2CCNCCc1ccccc1	-3.1%	2.5%	-22.1%	-6.2%	0.1%	1.3%	4.4%	1.5%
